High-throughput results deposited in PubChem by several laboratories.
PKD1 inh: inhibitors of human PKD1 kinase, biochemical, fluorescence polarization; PKD1 kinase fluorescence polarization assay; 200,000 tested, 0.056% active; inhibition, %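 (about 10 µM by stock and volumes)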; Serine/threonine-protein kinase D1 (Homo sapiens), Q15139;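 active = inhibition of 50% or more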;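 note: controls were vehicle for no effect and a reference inhibitor for full effect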
RGS16-Gao HTS: modulators of RGS16 binding to Galphao, primary screen, biochemical, human proteins, multiplexed bead flow cytometry; Regulator of G-protein signaling 16 (Homo sapiens) + Guanine nucleotide-binding protein …; bead-based flow cytometry RGS16-Galphao binding, fluorescence; actives lie on both sides; binding response (% of control), % at 10 µM; 220,000 tested, 0.38% active;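 active = below 25% or above 175%, edge rows of some plates excepted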;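 note: Galphao activated by GDP with aluminum fluoride before binding; 100% = wells without compound and 0% = beads without RGS; some results beyond the cut were filed as inactive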
Target sequence (O15492 whole entry, looked up): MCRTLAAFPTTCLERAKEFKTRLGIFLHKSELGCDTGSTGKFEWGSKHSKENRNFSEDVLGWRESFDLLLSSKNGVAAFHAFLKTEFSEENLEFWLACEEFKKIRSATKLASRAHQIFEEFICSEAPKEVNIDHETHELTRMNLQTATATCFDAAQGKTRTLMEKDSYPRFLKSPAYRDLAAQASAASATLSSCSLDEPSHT
Target sequence (P09471 whole entry, looked up): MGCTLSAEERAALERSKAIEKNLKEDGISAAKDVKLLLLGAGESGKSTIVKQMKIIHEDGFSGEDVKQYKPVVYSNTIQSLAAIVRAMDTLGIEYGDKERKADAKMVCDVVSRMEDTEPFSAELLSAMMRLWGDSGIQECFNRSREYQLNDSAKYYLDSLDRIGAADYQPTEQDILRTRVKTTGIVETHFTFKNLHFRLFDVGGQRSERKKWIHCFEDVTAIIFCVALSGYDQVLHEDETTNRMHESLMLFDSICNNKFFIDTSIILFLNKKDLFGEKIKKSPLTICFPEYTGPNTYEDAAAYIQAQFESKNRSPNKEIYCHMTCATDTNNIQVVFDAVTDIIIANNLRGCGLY
INS promoter inh: inhibitors of insulin promoter-driven GFP, primary screen, imaging, TRM-6 cells (human fetal islet line), eGFP reporter, cell count. inhibition, % at 2 µM. AID 1273, 2008. reporter expression induced with tamoxifen. 130,000 tested, 0.9% active;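 active = inhibition above the mean plus 3 SD, with well images judged a real hit on visual review, cut at about 60% in these data, passing the limit was not always enough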
GALR2 agonist: GALR2 receptor agonists, primary screen, cell-based; 140,000 tested, 0.48% active; activation, %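 (tested at 5 µM)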; Galanin receptor type 2 (Homo sapiens), O43603; GALR2-expressing cells, agonist activation read-out; AID 803, 2007;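 active = above mean plus 3 SD of all compounds, about 5% in these data, not always enough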;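 note: 0% = vehicle buffer wells and 100% = reference agonist at full effect; tested in CHO reporter cells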
Target sequence (O43603 whole entry, looked up): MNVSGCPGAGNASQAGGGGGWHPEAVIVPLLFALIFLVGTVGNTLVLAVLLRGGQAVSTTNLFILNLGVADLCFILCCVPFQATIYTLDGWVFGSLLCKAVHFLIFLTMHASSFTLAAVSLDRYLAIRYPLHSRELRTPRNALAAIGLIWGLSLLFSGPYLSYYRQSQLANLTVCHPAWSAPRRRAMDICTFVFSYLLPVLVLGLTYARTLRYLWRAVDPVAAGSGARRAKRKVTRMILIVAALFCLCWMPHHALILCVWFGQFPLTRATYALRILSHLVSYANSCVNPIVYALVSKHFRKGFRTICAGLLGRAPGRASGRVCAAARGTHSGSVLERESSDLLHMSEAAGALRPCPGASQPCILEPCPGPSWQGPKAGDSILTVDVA
HSV replic up: enhancers of HSV replication in host cells, fold increase, host cell viability | 220,000 tested, 0.005% active | maximum fold increase | AID 1956, 2009 | HSV replication augmentation in cells;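 active = peak rise of 1.5-fold or more in the series; tested in PC3 cells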;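 note: first round at 10 µM; read as green reporter fluorescence; hits show the peak of a series up to 25 µM; 1 = signal of infected wells without compound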
INS promoter inh cell count: also measured in INS promoter inh; calls as there; normalized cell count, %; measured here: cell count, toxicity; reference of the scale not given here;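 cells exposed to compound for 48 h; stained nuclei by imaging scaled within each plate; lower means fewer cells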
HSV replic up primary fold: also measured in HSV replic up; calls as there; fold increase; compound at 10 µM; measured here: primary screen fold increase 10 uM; tested in PC3 cells;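 GFP signal in the first replicate; 1 = infected wells without compound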
Numbers without * were called inactive; i = inactive; x = no result given.

The first two records, to show the layout:
SMILES	PKD1 inh	RGS16-Gao HTS	INS promoter inh	INS promoter inh cell count	GALR2 agonist	HSV replic up	HSV replic up primary fold
O=C(Cc1csc(-c2ccccc2)n1)NCc1ccco1	6	107	25	122	x	i	0.95
COC(=O)c1cc2oc(C)cc2n1CC(=O)Nc1ccc(C)c(C)c1	-7	111	-259	64	-2.6	i	0.8

The listing, from the first entry:
SMILES	PKD1 inh	RGS16-Gao HTS	INS promoter inh	INS promoter inh cell count	GALR2 agonist	HSV replic up	HSV replic up primary fold
O=C(Cc1csc(-c2ccccc2)n1)NCc1ccco1	6	107	25	122	x	i	0.95
COC(=O)c1cc2oc(C)cc2n1CC(=O)Nc1ccc(C)c(C)c1	-7	111	-259	64	-2.6	i	0.8
Cc1[nH]c2ccc(CNS(=O)(=O)c3ccc(S(=O)(=O)N4CCOCC4)cc3)cc2c1C	-5	102	-46	157	-2.2	i	0.62
CCOc1ccc(/C(CCC(=O)O)=N/NC(=S)NCCc2ccccc2)cc1	-1	99	x	x	x	i	0.97
O=C(Nc1ccc2c(c1)OCCO2)C1CCN(S(=O)(=O)c2cccc3nsnc23)CC1	-3	109	-17	110	1.7	i	1.1
O=C(CN1CCN(Cc2ccccc2F)C1=O)NCC1CCCO1 (stereo not drawn)	x	93	x	x	x	i	0.91
CC(C)NC(=O)C(=O)NCCc1ccc(Cl)cc1	-2	105	-11	84	0.1	i	1
c1ccc2nc3c(cc2c1)CCCCCC3	-1	100	x	x	-0.8	i	0.9
O=C(O)CSc1nnc2c(n1)[nH]c1ccccc12	1	107	36	159	x	i	0.84
O=C(/C=C/Nc1ccccc1F)c1cccs1	-4	97	x	x	-1.1	i	1.1
COc1ccccc1-c1cc(C(=O)NN)[nH]n1	x	102	x	x	x	i	0.73
CC1CCN(C(=O)C2(NC(=O)Nc3cccc(F)c3)CCCCC2)CC1	-7	106	-256	123	-2.6	i	1.1
CON1C(=O)C(=O)N(OC)C2CCCCCC21 (stereo not drawn)	-5	105	x	x	0.7	i	1.1
CCC(=O)Nc1ccc(C(=O)Nc2cccc(C)n2)cc1	-2	97	x	x	x	i	0.9
O=C(Cn1cnc2sc(-c3ccccc3)cc2c1=O)NCc1ccco1	-6	92	i	38	0.3	i	0.84
Cn1cc(CN(Cc2ccccc2)C[C@@H]2CCC(=O)N2)c(-c2ccccc2F)n1	-1	101	-39	203	x	i	0.94
C/C(=N\NC(=O)c1cccc(S(=O)(=O)N2CCCCC2)c1)c1ccc(C)o1	0	103	27	99	x	i	0.98
CCOc1cc(C)c(Cl)cc1S(=O)(=O)n1nnc2ccccc21	2	102	-94	68	1.2	i	1
COc1ccccc1NC(=O)c1ccc(NC(=O)Cc2n[nH]c(=O)c3ccccc23)cc1	x	86	x	x	x	i	0.98
CCOc1ccc(OCc2ccc(C(=O)NCc3cccnc3)o2)cc1	-13	106	-13	111	0.7	i	0.96
CC(C)(C)NC(=O)c1sccc1C(=O)O	1	96	x	x	-1.8	i	1.2
COc1ccc(NC(=O)CNc2cccc(C#N)c2)cc1Cl	-4	104	43	158	0.7	i	0.85
O=C(Nc1c(Cl)cc(Cl)cc1C(=O)NCc1cccnc1)c1ccc(Cl)cc1Cl	-2	42	-50	68	-2.4	i	0.84
CC(C)(C)c1ccc(OCc2ccc(C(=O)N3CCOCC3)o2)cc1	-1	102	x	x	x	i	0.85
Brc1ccc(OCc2nnc3n2CCC3)cc1	2	113	33	161	-0.3	i	0.97
S=C(NCCN1CCOCC1)Nc1ccc(Cl)cc1	0	98	50	55	-1.4	i	0.91
O=c1nc2n(c3c4c(sc13)CCC4)CCC2	-6	114	55	156	-1.1	i	0.92
Nc1nc2c3ccccc3nc(C3CC3)n2n1	3	104	-14	129	1.1	i	0.84
CCn1c(=O)ccc2cc([N+](=O)[O-])ccc21	0	95	x	x	x	i	0.93
Cc1ccc(CC(=O)Nc2nc3ccccc3s2)cc1	-5	99	15	152	-1.9	i	0.96
CC1=C(C(=O)Nc2cccc(F)c2)C(c2ccsc2)C2=C(CC(C)(C)CC2=O)N1 (stereo not drawn)	6	102	-83	95	1.1	i	0.74
Cc1ccc(CC(CC(=O)O)C(=O)NCc2ccccc2)cc1 (stereo not drawn)	-7	101	x	x	0.6	i	1
COC(=O)[C@@H](NC(=O)Nc1ccccc1F)C(C)C	-9	106	x	x	-0.8	i	1
Cc1ccc(C)c(S(=O)(=O)NC(CC(C)C)C(=O)O)c1 (stereo not drawn)	-7	104	27	105	-1.2	x	x
CCCc1cc(NC(=O)CCl)n(-c2ccccc2)n1	-7	112	x	x	x	i	0.65
Cn1ccnc1SCC(=O)N(C1CCCCC1)C1CCCCC1	-3	99	x	x	0.3	i	0.99
Fc1cccc2sc(Nc3nnc(-c4ccccc4)o3)nc12	-6	102	x	x	-0.1	i	0.89
O=C(O)c1cc2ccc3ccccc3c2[nH]1	-11	124	-59	44	-1.6	i	1
CCC(C)c1ccccc1OCCOCCN1CCCC1 (stereo not drawn)	-4	109	8	155	0.4	i	0.85
O=C(C1CCCN(Cc2nc(-c3cccs3)no2)C1)N1CCOCC1 (stereo not drawn)	-3	99	x	x	x	i	0.94
O=C(O)c1ccc(/C=C/c2ccc3cccc(O)c3n2)cc1	-6	99	x	x	x	i	1
CC(=O)Nc1nc(CC(C)C)cc(-c2ccco2)c1C#N	-5	102	25	93	-0.2	i	1.1
O=C(NNc1ccccc1C(F)(F)F)c1cccs1	x	103	x	x	x	i	0.97
O=C(CCCOc1ccccc1)Nc1nc2ccccc2[nH]1	-10	105	55	100	x	i	0.88
CC(=O)c1ccc(N2CCN(C(=O)C3CCCN(S(=O)(=O)c4c(C)[nH]c(=O)[nH]c4=O)C3)CC2)cc1 (stereo not drawn)	-5	100	48	125	x	i	0.99
Nc1nc(NCCCN2CCOCC2)nc(Nc2ccccc2)c1[N+](=O)[O-]	-2	110	-2	95	-0.3	i	0.8
O=C(CC1Oc2ccccc2NC1=O)NCc1ccc(Cl)cc1 (stereo not drawn)	-1	106	x	x	-2.1	i	0.84
COC(=O)Cn1cc(C(=O)OC)c2ccccc21	3	104	-40	66	-1.5	i	1.1
O=S(=O)(NCc1cc(-c2ccc(Cl)cc2)no1)c1ccccc1	-4	102	-47	136	-2.4	i	1.1
Cc1cc(=O)c(C(=O)O)nn1-c1ccc(Cl)cc1	x	102	x	x	x	i	1
Cc1nn(Cc2ccc(C(=O)Nc3nc4c(C)cccc4s3)o2)c(C)c1Br	-3	104	-37	176	-2.4	i	0.93
Cc1c(F)cccc1NS(=O)(=O)c1ccc(OCCNS(C)(=O)=O)cc1	-2	102	x	x	x	i	0.89
CSCC[C@H](NC(=O)CCCn1nnc2ccccc2c1=O)C(=O)O	x	104	x	x	x	i	1.1
CCSc1nnc(NC(=O)C2Cc3ccccc3CN2S(=O)(=O)CC)s1 (stereo not drawn)	-1	162	30	89	-0.4	i	0.85
O=C(COc1ccc2ccccc2c1Br)NC(=S)Nc1cccc(CO)c1	3	103	17	157	-0.7	i	0.89
O=C(N/N=C/c1cn(-c2ccccc2)nc1-c1cc2ccccc2o1)c1c[nH]c2ccccc12	4	100	x	x	x	i	0.98
CCN(CC)S(=O)(=O)c1ccc(OC(C)C)c(NC(=O)c2c3c(nc4ccccc24)CCN(Cc2ccccc2)C3)c1	1	134	-26	77	0.9	i	0.91
CC1(C)C(=O)Nc2ccccc2N1C(=O)COC(=O)c1ccc(Cl)c(S(=O)(=O)NCc2ccccc2)c1	13	101	-32	133	0.2	i	1.1
Cc1nn(CC(=O)NCc2ccc(-n3cccn3)cc2)c(C)c1[N+](=O)[O-]	-9	75	0	98	-1.3	i	0.87
COc1ccc(-c2nnn(CC(=O)N(CC(=O)NCCC(C)C)Cc3cccs3)n2)cc1OC	-2	101	x	x	0.0	i	1.2

Further results follow.
SMILES	PKD1 inh	RGS16-Gao HTS	INS promoter inh	INS promoter inh cell count	GALR2 agonist	HSV replic up	HSV replic up primary fold
Cc1cc(C)n(CC(O)CN(c2cccc([N+](=O)[O-])c2)S(=O)(=O)c2ccccc2)n1 (stereo not drawn)	6	102	x	x	x	i	0.99
Cc1ccc(Cl)cc1NC(=S)N(Cc1cccs1)C1CCCC1	0	95	x	x	x	i	0.99
Cc1c(NC(=O)C(C)OC(=O)CC2Sc3ccccc3NC2=O)c(=O)n(-c2ccccc2)n1C (stereo not drawn)	-12	126	0	112	-1.6	i	0.79
COC(=O)C1C2C=CC3(CN(CC4CCCO4)C(=O)C13)O2 (stereo not drawn)	-4	102	55	94	-0.3	i	0.81
COc1ccc(N2CCN(C(=O)c3cccc(F)c3)CC2)c([N+](=O)[O-])c1	-2	111	x	x	x	i	0.94
O=C1OCCC1Sc1nc2ccccc2[nH]1 (stereo not drawn)	1	107	12	118	-1.4	i	1
C#CCn1c(=NC(=O)c2cccs2)sc2cccc(OC)c21	7	111	x	x	-0.2	x	x
COc1cccc(-c2cc(C(=O)Nn3cnnc3)c3ccccc3n2)c1	-5	93	-9	114	-1.1	i	0.97
Cn1c2ccccc2c2c(C(=O)NCc3ccco3)cn(C3CCCCC3)c(=O)c21	4	61	-21	99	-1.3	i	1
CCO[C@@H]1OC(C(=O)NC2CC2)=C[C@H](c2ccc3c(c2)OCO3)[C@H]1CCCO	-3	100	x	x	x	i	0.92
O=C(O)c1[nH]c2ccccc2c1C=NCc1ccccc1Cl	1	106	53	84	x	i	0.93
O=C(O)C1CCN(S(=O)(=O)c2cccnc2)CC1	3	102	x	x	-0.5	i	1
O=S(=O)(Nc1cccnc1)c1ccc(Cl)cc1	-4	61	54	182	80*	i	0.96
CC1(Br)C2CCCC1C2S(=O)(=O)c1ccccc1 (stereo not drawn)	9	104	x	x	-0.1	i	0.88
CCC1ON(c2ccccc2)C2c3nc4ccccc4n3CC12 (stereo not drawn)	x	110	x	x	x	i	0.68
Nc1ccc(NS(=O)(=O)c2ccccc2)cc1	7	93	27	176	x	i	1
Cc1occc1C(=O)NNC(=O)NC12CC3CC(CC(C3)C1)C2	-2	96	26	107	-0.9	x	x
Cc1nc(C)c(C(=O)NNC(=O)c2ccc(Br)cc2)s1	-1	109	x	x	-1.0	i	1.2
CC1(C)SC(=S)N(/N=C/c2cccnc2)C1N(O)C(=O)NC1CCCCC1 (stereo not drawn)	x	101	x	x	x	i	0.92
CC(C)N1CCC(N2CCN(Cc3cnc(-c4ccccc4)s3)CC2CCO)CC1 (stereo not drawn)	-8	100	x	x	x	i	0.96

17 entries out of the list, sorted by length of the SMILES, falling:
SMILES	PKD1 inh	RGS16-Gao HTS	INS promoter inh	INS promoter inh cell count	GALR2 agonist	HSV replic up	HSV replic up primary fold
Cc1cc(C)n(CC(O)CN(c2cccc([N+](=O)[O-])c2)S(=O)(=O)c2ccccc2)n1 (stereo not drawn)	6	102	x	x	x	i	0.99
CCO[C@@H]1OC(C(=O)NC2CC2)=C[C@H](c2ccc3c(c2)OCO3)[C@H]1CCCO	-3	100	x	x	x	i	0.92
COc1ccc(-c2nnn(CC(=O)N(CC(=O)NCCC(C)C)Cc3cccs3)n2)cc1OC	-2	101	x	x	0.0	i	1.2
COc1ccc(N2CCN(C(=O)c3cccc(F)c3)CC2)c([N+](=O)[O-])c1	-2	111	x	x	x	i	0.94
Cn1c2ccccc2c2c(C(=O)NCc3ccco3)cn(C3CCCCC3)c(=O)c21	4	61	-21	99	-1.3	i	1
CC1(C)SC(=S)N(/N=C/c2cccnc2)C1N(O)C(=O)NC1CCCCC1 (stereo not drawn)	x	101	x	x	x	i	0.92
CC(C)N1CCC(N2CCN(Cc3cnc(-c4ccccc4)s3)CC2CCO)CC1 (stereo not drawn)	-8	100	x	x	x	i	0.96
COc1cccc(-c2cc(C(=O)Nn3cnnc3)c3ccccc3n2)c1	-5	93	-9	114	-1.1	i	0.97
Cc1occc1C(=O)NNC(=O)NC12CC3CC(CC(C3)C1)C2	-2	96	26	107	-0.9	x	x
COC(=O)C1C2C=CC3(CN(CC4CCCO4)C(=O)C13)O2 (stereo not drawn)	-4	102	55	94	-0.3	i	0.81
Cc1ccc(Cl)cc1NC(=S)N(Cc1cccs1)C1CCCC1	0	95	x	x	x	i	0.99
O=C(O)c1[nH]c2ccccc2c1C=NCc1ccccc1Cl	1	106	53	84	x	i	0.93
CCC1ON(c2ccccc2)C2c3nc4ccccc4n3CC12 (stereo not drawn)	x	110	x	x	x	i	0.68
CC1(Br)C2CCCC1C2S(=O)(=O)c1ccccc1 (stereo not drawn)	9	104	x	x	-0.1	i	0.88
O=S(=O)(Nc1cccnc1)c1ccc(Cl)cc1	-4	61	54	182	80*	i	0.96
Nc1ccc(NS(=O)(=O)c2ccccc2)cc1	7	93	27	176	x	i	1
O=C1OCCC1Sc1nc2ccccc2[nH]1 (stereo not drawn)	1	107	12	118	-1.4	i	1
